# CSC inhib: cancer stem cell viability inhibitors, primary screen, luminescence. cancer stem cell-like cells viability. inhibition, % at 7.5 µM. actives 1.1% (n = 300,000). AID 2717, 2010;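 active means mean at 75% or more and at least half the replicates too; inconclusive means mean and replicates disagree; tested in HMLE shEcad cells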;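 further: 0% = median of negative and 100% = median of positive control wells; the first replicate is given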
# MT1-MMP act inh: blockers of MT1-MMP proenzyme processing, primary screen, HT1080 RFP-PRO-GFP cells, GFP/RFP fluorescence. GFP/RFP ratio change, % at 20 µM. actives 0.061% (n = 360,000). Matrix metalloproteinase-14 (Homo sapiens), P50281. AID 651647, 2012. GFP/RFP ratio fluorescence, overnight; percent of plate control window, DMSO zero;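 active means GFP/RFP ratio change of at least 30% with cell ATP level not reduced by more than half and red fluorescence within 50% of control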; further: strong numbers were not always called active
#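 system = RFP-PRO-GFP reporter HT1080 cells | dosing = 20 µM single dose, 1% DMSO | timing = overnight cell settling, then overnight compound exposure, 37 °C, 5% CO2 | read-out basis = GFP/RFP fluorescence ratio | controls = DMSO and RFP-L50D-GFP cell wells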
# UUG fidelity: modulators of yeast start codon fidelity, primary screen, whole organism, S. cerevisiae, single point, plate reader. S. cerevisiae UUG-firefly luciferase reporter, luminescence/redox ratio. activity score, % at 18.7 µM. actives 0.13% (n = 350,000). AID 602363, 2012;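 active means replicate mean at a twofold rise or more, about +100% in these data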;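 further: firefly luciferase made from a UUG start codon reports start codon fidelity; reporter light over untreated wells divided by growth signal over untreated wells; some hits fall short of that in this replicate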
# HIV Env fusion: inhibitors of HIV-1 Env-driven cell-cell fusion, primary screen, HeLa-JRFL effector, CEM21 target cells, luciferase; inhibition, % at 12.3 µM; actives 1.1% (n = 360,000); AID 651610, 2012;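 active means mean replicate inhibition score of at least 50 and every replicate individually at or above 50; inconclusive means only one of the two criteria met; inactive means mean below 50 and not all replicates reaching 50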;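 further: 0% = plate neutral controls and 100% = maraviroc near 300 nM; one replicate is shown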
# eIF4H FP inh: human eIF4H binding inhibitors, primary screen, translation initiation inhibitor project, biochemical, uHTS, fluorescence polarization | Eukaryotic translation initiation factor 4H (Homo sapiens), Q15056 | eIF4H fluorescence polarization binding assay | inhibition, % at 35 µM | actives 0.94% (n = 290,000);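 active means 50% or more with normal probe brightness, or confirmed in later tests; inconclusive means above 50% with abnormal brightness, or retests that disagree; inactive means below 50% or failed in later tests; about a fifth of its hits are not listed in these tables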;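 further: calls also rest on retests at 20 µM and on dose response follow-up; 0% = protein and probe with vehicle and 100% = probe without protein; strong numbers were not always called active; many hits fall short of the cut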
# PABP FP inh: PABP poly(A) RNA binding inhibitors, primary screen, biochemical, fluorescence polarization, uHTS. actives 1% (n = 290,000). inhibition, % at 35 µM;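 active means 50% or more with normal probe brightness, or confirmed in later tests; inconclusive means above 50% with abnormal brightness, or retests that disagree; inactive means below 50% or failed in later tests; about a fifth of its hits are not listed in these tables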;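 further: calls also rest on retests at 20 µM and on dose response follow-up; controls were probe without protein and protein plus probe with vehicle; some compounds called inactive have numbers as strong as hits; many hits fall short of the cut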
# Target sequence (P11940 whole entry, looked up): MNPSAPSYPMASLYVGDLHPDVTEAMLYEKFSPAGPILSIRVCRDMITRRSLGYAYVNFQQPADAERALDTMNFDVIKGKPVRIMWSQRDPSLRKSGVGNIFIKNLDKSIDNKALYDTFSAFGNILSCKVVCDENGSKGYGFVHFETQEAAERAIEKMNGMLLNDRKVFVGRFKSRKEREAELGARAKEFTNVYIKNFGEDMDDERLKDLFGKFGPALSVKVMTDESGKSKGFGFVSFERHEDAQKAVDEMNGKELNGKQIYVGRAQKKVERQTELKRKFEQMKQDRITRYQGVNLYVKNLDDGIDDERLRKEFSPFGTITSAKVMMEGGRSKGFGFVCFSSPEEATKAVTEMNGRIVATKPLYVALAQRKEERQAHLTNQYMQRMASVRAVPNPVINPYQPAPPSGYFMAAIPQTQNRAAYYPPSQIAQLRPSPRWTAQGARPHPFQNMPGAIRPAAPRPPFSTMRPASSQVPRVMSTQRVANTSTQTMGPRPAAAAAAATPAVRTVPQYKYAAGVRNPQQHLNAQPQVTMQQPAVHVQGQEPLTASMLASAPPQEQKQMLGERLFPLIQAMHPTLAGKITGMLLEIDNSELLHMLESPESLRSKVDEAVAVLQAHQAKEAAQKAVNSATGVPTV
# Rce1 inhib: yeast Rce1p protease inhibitors, primary screen, biochemical, fluorescence, cell-free homogeneous; CAAX prenyl protease 2 (Saccharomyces cerevisiae (strain ATCC 204508 / S288c)), Q03530; yeast membranes, quenched prenylated peptide cleavage fluorescence; calls only; actives 0.27% (n = 290,000); AID 2563, 2010;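 active means fall in fluorescence gain of 50% or more versus controls, with final raw signal at or below 3038400; inconclusive means same 50% fall but final raw signal above 3038400; inactive means fall in fluorescence gain under 50%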;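 further: plate controls were neutral control wells for no effect and wells lacking membranes for full effect; tested at 10 µM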
# Target sequence (Q03530 whole entry, looked up): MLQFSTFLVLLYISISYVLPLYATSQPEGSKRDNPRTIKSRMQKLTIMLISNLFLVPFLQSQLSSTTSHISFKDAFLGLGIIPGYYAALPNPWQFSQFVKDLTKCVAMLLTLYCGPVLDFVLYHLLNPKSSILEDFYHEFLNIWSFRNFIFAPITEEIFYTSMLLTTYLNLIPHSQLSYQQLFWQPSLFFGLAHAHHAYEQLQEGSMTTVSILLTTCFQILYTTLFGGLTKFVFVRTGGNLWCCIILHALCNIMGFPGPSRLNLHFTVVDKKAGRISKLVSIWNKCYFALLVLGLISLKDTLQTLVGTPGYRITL
# eIF4H FP inh retest: recorded beside eIF4H FP inh, whose call it bears; inhibition, %; compound at 20 µM; confirmation average;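 mean of two retest wells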
# PABP FP inh retest: further read-out of PABP FP inh, marked with its call; inhibition, %; compound at 20 µM; confirmation repeats;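 mean of two retest wells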
# MT1-MMP act inh RFP: second read-out of MT1-MMP act inh, no call of its own (marks repeat the call); RFP signal change, %; measured here: RFP expression control read;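 0 = vehicle wells; hits needed this value within 50% of zero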
# * hit, by the source's call; i = inactive; ? = inconclusive; nt = not tested or not shown. This is a subset; rates above refer to the full screens.
SMILES,CSC inhib,MT1-MMP act inh,MT1-MMP act inh RFP,UUG fidelity,HIV Env fusion,eIF4H FP inh,PABP FP inh,Rce1 inhib,others
CC(C)N(CC(N)=O)c1ncnc2sc(-c3ccccc3)cc12,18,-7,2,-12,-3,-12,-13,i,
COc1ccc(CCC(=O)NNC(=O)c2ccc(OC)cc2)cc1,nt,0,5,-10,6,-2,3,i,
COc1ccc(-c2[nH]ncc2CN(C)CC2CCCCO2)cc1F (stereo not given),-4,-6,-6,nt,-6,3,-4,i,
CCC(=O)Nc1ccc2c(c1)nc(CN1CCN(C(C)=O)CC1)n2C,-13,-1,0,-26,-11,-2,2,i,
CCCn1nc(C(=O)N2CCN(S(=O)(=O)c3ccc(C)c(C)c3)CC2)c2ccccc2c1=O,nt,0,-9,-5,-2,nt,nt,nt,
COc1cc(NC(=O)c2cc3nc(C4CC4)cc(C(F)(F)F)n3n2)c(OC)cc1Cl,17,-1,1,nt,-4,4,-8,i,
Cc1onc(-c2ccccc2)c1C(=O)N/N=C/C=C/c1ccccc1,13,0,-5,-18,17,-4,4,i,
CCOC(=O)CSc1nnc(Cn2c(=O)sc3ccccc32)n1-c1ccccc1C,1,9,3,-8,-7,-1,3,i,
O=C1CCC2(CCCC2)c2ccccc21,nt,-5,-1,-6,21,nt,nt,nt,
CN(C(=O)COC(=O)c1cc(=O)[nH]c2ccccc12)c1ccccc1,-9,-4,6,-9,-61,nt,nt,nt,
CC(NC(=O)CCC(=O)NC(C)C1COc2ccccc2O1)C1COc2ccccc2O1 (stereo not given),14,2,-7,23,nt,-3,5,i,
O=c1[nH]c(/C(Cl)=C/c2cccc(C(F)(F)F)c2)nc2cc(Cl)ccc12,-5,-5,3,nt,-34,3,1,i,
CCCSc1nc(=S)n(Cc2ccccc2)c(C)c1C(C)=O,-6,3,3,nt,23,4,-10,i,
COCCNc1cc(-c2ccccc2)nc2cc(-c3cccc(F)c3)nn12,85*,-6,-9,-7,19,-6,1,i,
O=[N+]([O-])c1ccccc1S(=O)(=O)Oc1ccc(/C=N/n2cnnc2)cc1,nt,-1,1,nt,nt,-5,7,i,
CCCC(=O)Nc1ccccc1NC(=O)c1ccc(OCC)c(OCC)c1,-13,-2,2,nt,-3,-7,6,i,
CC(OC(=O)c1c2c(nc3ccccc13)/C(=C\c1ccc3c(c1)OCO3)CCC2)C(=O)Nc1ccc(S(N)(=O)=O)cc1 (stereo not given),nt,-103,3,-17,nt,?,-10,nt,
O=C(Nc1cccc(S(=O)(=O)N2CCCCC2)c1)C1CC(=O)N(c2ccc3c(c2)OCCO3)C1 (stereo not given),nt,3,-13,-6,-1,-6,8,i,
C#CCOCCOCCOCCNc1nc(N2CCN(C(=O)C(Cc3cc4ccccc4[nH]3)n3cc(C(N)Cc4ccc(O)cc4)nn3)CC2)nc(N2CCN(C(=O)C(CCC(=O)O)n3cc(C(N)C(C)CC)nn3)CC2)n1 (stereo not given),17,1,5,7,-7,nt,nt,nt,
O=C1CSC(c2ccc(Cl)cc2)N1C1CCCCC1 (stereo not given),15,5,-3,-18,nt,-7,0,i,
COc1ccc(CNS(=O)(=O)c2ccc3c(c2)CCN3C(=O)C2CCC2)cc1,-5,1,6,-19,8,-8,4,i,
Cc1nnsc1C(=O)NNC(=O)c1cccc2ccccc12,-8,0,0,3,4,3,0,i,
CSc1nc(N)nc(C2CC2)n1,-30,-1,8,-3,-19,-14,2,i,
CCC1SC(CC)C(=O)N(CC(=O)Nc2ccc3c(c2)OCO3)C1=O (stereo not given),3,2,3,-9,4,11,-4,nt,
O=S(=O)(Nc1ccc(-c2ccc3nncn3n2)cc1)c1cc(F)ccc1F,-3,4,5,-21,-7,nt,nt,i,
Cc1ccc(C(=O)NCc2ccc3c(c2)OCO3)cc1,-14,-7,-3,-8,-16,-6,-14,i,
CC(C)[C@H](NC(=O)C1CCN(S(=O)(=O)c2ccccc2)CC1)C(=O)NCc1ccncc1,-17,-1,3,-7,15,-11,-6,i,
COC(=O)Cc1ccc(NC(=S)NN2CCOCC2)cc1,2,1,3,-16,30,-3,-1,i,
CC(C)c1ccccc1NC(=O)COC(=O)/C=C/c1cccc([N+](=O)[O-])c1,-8,-1,1,nt,-18,-14,-25,i,
CN1CCN(/N=C/c2ccc(OCc3ccccc3)cc2)CC1,?,0,-6,-11,0,-12,-5,i,
O=C(N/N=C/C=C/c1ccccc1[N+](=O)[O-])c1cc(-c2cccnc2)nc2ccccc12,27,-2,-4,nt,31,-5,-4,i,
CCOC(=O)C1CCCN(C(=O)CCCn2nc(C)n3c(cc4sccc43)c2=O)C1 (stereo not given),-2,3,6,12,31,-19,0,i,
C/C(=N\OC(=O)c1ccccc1F)c1nccs1,2,4,5,-62,4,2,9,i,
CC[C@]12c3[nH]c4ccc(Cl)cc4c3CCN1C(=O)[C@@H](CC(=O)NCc1ccc(OC)c(OC)c1)C[C@@H]2C(=O)N1CCN(C(=O)C2CC2)CC1,nt,-2,2,7,11,nt,nt,nt,
Cc1ccccc1OCC(=O)OCC(=O)NC1CCCC1,nt,3,3,-13,-41,nt,nt,nt,
COc1ccc(NC(=O)Cn2cc(C(=O)c3ccco3)c3ccccc32)cc1,7,7,0,-15,-44,-15,7,i,
CC(C)(CO)CNC(=O)c1ccc(OC2CCN(C(=O)C3CC3)CC2)cc1,-9,2,0,-16,-11,-3,10,i,
Cc1csc2c(N3CCN(C(=O)NC(C)(C)C)CC3)ncnc12,-1,16,-7,-12,11,-6,53,i,eIF4H FP inh retest=-4;PABP FP inh retest=7
Cc1ccc(-n2ncc3c(=O)[nH]c(SCC(=O)N4CCC(C)CC4)nc32)cc1C,nt,-2,-6,-9,-2,2,-4,nt,
O=C(CSc1nc2[nH]ncc2c(=O)n1-c1ccccc1Br)NCc1ccccc1Cl,-4,0,4,nt,5,-3,-4,i,
O=C(O)CC(NC(=O)C(c1ccccc1)c1ccccc1)c1cccc([N+](=O)[O-])c1 (stereo not given),1,4,4,nt,8,2,13,i,
Cc1ccc(C)c(N2CCN(C(=O)c3ccc4nsnc4c3)CC2)c1,50,-11,-15,-2,-41,-10,1,i,
O=C(COC(=O)C1(c2ccccc2F)CCCC1)Nc1ncc(C(F)(F)F)cc1Cl,-3,-5,-2,-6,20,6,-1,i,
COc1ccc(Cn2nc(C(=O)O)c3ccccc3c2=O)cc1F,2,2,-2,-8,16,14,2,i,
O=C(CN1C(=O)NC(c2ccccc2)(c2ccccc2)C1=O)Nc1ccc2[nH]c(=O)[nH]c2c1,-9,5,15,-11,-6,0,-1,i,
CCCNC(=O)C1(C)CCCN(C(=O)c2c(C)noc2C)C1 (stereo not given),nt,-3,-1,1,5,nt,nt,nt,
CCOc1nc(C)cc(COC)c1C(N)=O,0,0,4,nt,17,7,1,i,
CCOc1ccc(N(CC(=O)N2CCOCC2)S(=O)(=O)c2ccc(Cl)cc2)cc1,-11,0,2,8,-10,13,-4,i,
COc1ccc(NC(=O)C2C3C=CC(C3)C2C(=O)NCc2ccccn2)c(OC)c1 (stereo not given),12,-4,-1,-7,-33,7,-6,nt,
O=C(c1cc2c(s1)-c1ccccc1OC2)N1CCN(c2ccccc2)CC1,10,0,2,-18,-6,7,-3,i,

# Remaining list, next part.
SMILES,CSC inhib,MT1-MMP act inh,MT1-MMP act inh RFP,UUG fidelity,HIV Env fusion,eIF4H FP inh,PABP FP inh,Rce1 inhib,others
Cc1nnc(NC(=O)c2cccc(S(=O)(=O)N(C)c3cccc(Cl)c3)c2)s1,-14,3,-1,-5,2,nt,nt,nt,
CCCOc1ccc(CCC(=O)N/N=C/c2ccc([N+](=O)[O-])o2)cc1,-5,4,-6,nt,8,13,1,i,
O=C(O)C1C2CCC(C2)C1C(=O)NCCC1=CCCCC1 (stereo not given),18,-1,1,-20,nt,-2,-11,i,
CC(=O)c1cc(C)c(OCc2cn(CC(=O)c3ccc(O)cc3)nn2)c(C)c1,nt,2,7,-16,-20,nt,nt,nt,
COc1ccc(NC(=O)C(NC(=O)OC(C)(C)C)C(C)OCc2ccccc2)cc1 (stereo not given),-12,-8,-10,-14,-23,7,1,i,
OCc1nc2ccccc2n1/N=C/c1cccs1,-13,-1,-3,-5,-4,-5,3,i,
COc1cccc(/C=C2\CC(C)Cc3c2nc2ccccc2c3C(=O)O)c1OC (stereo not given),-2,0,1,2,-20,44,32,i,
COc1ccccc1C(=O)Nc1cc(C)c(OCC(=O)N2CCOCC2)c(C)c1,0,-2,1,-6,-2,4,4,i,
CSCCC(NC(=O)/C(=C\c1ccco1)NC(=O)c1ccco1)C(=O)O (stereo not given),2,-1,3,-9,16,-1,-1,i,
COc1ccccc1CNC(=O)COC(=O)C12CC3CC(CC(O)(C3)C1)C2,-9,-5,3,1,nt,nt,nt,nt,
Cc1cc(NC(=O)C(C)C)ncc1NC(=O)CCc1ccccc1,-14,0,2,-11,nt,nt,nt,i,
O=C(Cn1cc[n+](CC(=O)c2ccccc2)c1)c1ccccc1,-15,7,-4,-17,13,-2,2,i,
CCCCOC(=O)n1c(=S)oc2cc(Cl)ccc21,nt,-6,-2,-1,-53,-4,3,i,
O=C(NCC1CCCO1)C(=O)N/N=C\c1ccc2c(c1)OCO2 (stereo not given),3,0,4,-9,-11,5,1,i,
CSc1ccc(/C=C2/C(=N)N3N=C(CC(=O)N4CCCC4)SC3=NC2=O)cc1,-3,-3,2,-23,-12,-17,0,i,
CC(C)CN(C(=O)COC(=O)CSc1ccc(Br)cc1)C1CCS(=O)(=O)C1 (stereo not given),nt,8,3,-4,-20,nt,nt,nt,
O=C(NCC(c1ccco1)N1CCc2ccccc21)C(=O)Nc1ccccc1 (stereo not given),0,0,-9,-15,-48,nt,nt,i,
COc1cccc(-n2ccnc2SCC(=O)Nc2nccs2)c1,2,-1,-3,-30,nt,-2,-12,i,
CCCN1CCC(=O)N([C@H](CSc2ccc(C)cc2)CC(C)C)CC1,nt,3,-1,-22,-47,-3,0,i,
CCOC(=O)c1sc(NC(=O)CCN2C(=O)c3ccccc3C2=O)c(C(=O)OCC)c1C,3,-6,-2,nt,-11,0,-8,i,
COc1ccccc1N(CC(O)Cn1c(C)nc2ccccc21)S(=O)(=O)c1ccccc1 (stereo not given),11,-4,-2,-20,2,2,8,i,
CN1CCN(C(=S)Nc2ccc([N+](=O)[O-])cc2)CC1,0,-1,-6,-22,nt,-10,0,i,
O=[N+]([O-])c1cccc(COc2cccc(CO)c2)c1,nt,4,3,-15,-21,nt,nt,nt,
CCOc1cc(S(=O)(=O)N2CCCCC2)ccc1F,nt,-3,0,-7,nt,4,14,i,

# Compound activity deposited in PubChem BioAssay by several laboratories.
